ALR H2O2 inh = human ALR oxidase inhibition via reduced H2O2. P55789. purified ALR, DTT oxidation, H2O2 HRP-luminol luminescence. inhibition, % (concentration not given with the values). hit rate 3.8% among 290,000. AID 485317;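 active means mean and each replicate at 75% or more; inconclusive means only one of the two met; inactive means neither met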;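 further: stock transfer was 7.5 nL into about 7.5 µL; 0% = neutral wells and 100% = wells with inactivated enzyme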
Target sequence (P55789 whole entry, looked up): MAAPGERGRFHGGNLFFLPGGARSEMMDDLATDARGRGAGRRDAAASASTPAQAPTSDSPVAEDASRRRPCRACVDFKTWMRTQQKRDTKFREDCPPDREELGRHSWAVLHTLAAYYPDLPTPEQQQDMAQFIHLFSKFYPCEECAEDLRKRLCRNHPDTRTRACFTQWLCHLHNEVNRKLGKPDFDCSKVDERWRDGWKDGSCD
Calb FLC = affects C. albicans growth with fluconazole. AID 1979. hit rate 0.57% among 300,000. C. albicans CaCi-2 (fluconazole-resistant clinical isolate) + fluconazole, Alamar Blue growth, 48 h. growth inhibition, % (concentration not given with the values);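 active means most replicates above 75%; inconclusive means exactly half above 75%; inactive means most below 75%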;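 further: all wells also contain fluconazole at 8 µg/ml as a sub-toxic cotreatment; 0% = median of DMSO wells and 100% = median of geldanamycin control wells; wells of about 8 µL received 7.5 nL stock; the first replicate is given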
Beta2AR agonist = human beta-2 adrenergic receptor agonism by FAP | P07550 | Am2.2-beta2AR cells, FAP receptor internalization, flow cytometry; reference of the scale not given here | response, % (test concentration not listed) | hit rate 0.43% among 340,000;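 active means response above a set limit, near 3 SD of response in nonfluorescent compounds, cut at about 42% in these data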;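 further: stock transfer was 100 nL into about 11 µL; a reference agonist was the positive control; negative values mostly stem from fluorescent compounds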
Target sequence (P07550 whole entry, looked up): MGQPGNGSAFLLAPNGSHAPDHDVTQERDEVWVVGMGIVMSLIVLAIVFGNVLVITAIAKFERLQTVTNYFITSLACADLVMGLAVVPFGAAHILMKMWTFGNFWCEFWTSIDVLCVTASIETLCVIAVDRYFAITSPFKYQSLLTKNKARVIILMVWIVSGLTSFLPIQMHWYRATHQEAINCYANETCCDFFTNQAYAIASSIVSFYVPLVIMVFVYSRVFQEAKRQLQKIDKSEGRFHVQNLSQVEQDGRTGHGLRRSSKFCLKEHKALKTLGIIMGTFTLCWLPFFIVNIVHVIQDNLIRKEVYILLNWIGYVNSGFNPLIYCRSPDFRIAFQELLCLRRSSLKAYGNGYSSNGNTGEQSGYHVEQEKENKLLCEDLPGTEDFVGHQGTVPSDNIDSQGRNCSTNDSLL
LANA-H2A inh = blocks KSHV LANA binding to histone H2A/H2B | hit rate 0.6% among 320,000 | Q9QR71 | cell-free LANA-H2A/H2B peptide, fluorescence polarization | inhibition, % (test concentration not listed); in the data active means inhibition mostly above about 10%, no sharp cut-off; inactive means mostly below about 6.7%;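 further: stock transfer was 7.5 nL into about 10 µL; 0% = median of vehicle wells and 100% = median of positive control wells; one replicate is shown; the record names a cut of 25% in any replicate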
Ecoli rRNA inh = inhibits bacterial ribosomal RNA function over humanized ribosomes. E. coli WT GFP vs humanized-ribosome RFP mutants, fluorescence, 24 h; hits give low values; DMSO median 0, no signal -100. GFP signal change (wild-type ribosome), % (concentration not given with the values). AID 720706. hit rate 1.6% among 350,000;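 active means significant combined selectivity score with lowered wild-type GFP, culture density cut under 30%, mutant RFP and density less affected; inactive means any of these conditions unmet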; further: one replicate is shown; some compounds called inactive have numbers as strong as hits
A1 inh = inhibitors of the anti-apoptotic protein A1, read as caspase activation; MEF A1-2A-BIM cells, Caspase-Glo 3/7 luminescence, 3 h; percent of clofoctol response, vehicle zero; caspase activation, % (no concentration beside the values); hit rate 0.066% among 330,000; AID 2462;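 active means over half of replicate activation scores above 10%, or exactly half above 10 with the replicate mean above 10; inconclusive means replicate mean below 10 yet half the replicates above 10; inactive means over half of replicates below 10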;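 further: wells of about 30 µL received 50 nL stock; many hits fall short of the cut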
Beta apoptosis = blocks beta cell apoptosis; INS-1E cytokine-induced death, ATP luminescence, 48 h; percent of positive-control rescue, neutral wells zero; protection from apoptosis, % (no concentration beside the values); hit rate 0.8% among 300,000; AID 435005;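 active means all replicates at 75% or more, or half of them and the mean; inconclusive means half reach 75% but not the mean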;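 further: 0% = cytokine-treated negative control wells and 100% = positive control rescue; higher means more ATP so stronger rescue from cytokine killing; wells of about 40 µL received 100 nL stock; the first replicate is given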
T cruzi repl = T. cruzi replication inhibition | T. cruzi beta-gal in NIH3T3, luminescence, 90 h | inhibition, % (no concentration beside the values) | hit rate 1.4% among 300,000 | AID 1885;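 active means mean inhibition across valid replicates above about 55%, limit read from the data; inconclusive means mean below that limit but half or more replicates reach it; inactive means mean below it, under half of replicates reach it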;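 further: signal also drops with host cell toxicity which is not excluded here; 0% = plate median of DMSO wells and 100% = zero luminescence signal; higher percent means less beta-gal luminescence so fewer parasites; stock transfer was 50 nL into about 50 µL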
Ecoli rRNA inh OD600 = further read-out of Ecoli rRNA inh, marked with its call; OD600 change, %; measured here: OD600 growth;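 optical density of the mix in the first replicate; 0 = DMSO median and -100 = no signal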
Ecoli rRNA inh RFP = further read-out of Ecoli rRNA inh, marked with its call; RFP signal change, %; measured here: RFP humanized mutant strains;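 first replicate; 0 = DMSO median and -100 = no signal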
Numbers without * were called inactive; ? = inconclusive; / = not tested or not shown. Not all compounds are listed; the hit share may differ from the screen's.

SMILES | ALR H2O2 inh | Calb FLC | Beta2AR agonist | LANA-H2A inh | Ecoli rRNA inh | Ecoli rRNA inh OD600 | Ecoli rRNA inh RFP | A1 inh | Beta apoptosis | T cruzi repl
O=C1CC(O)(C(F)F)Oc2ccc3ccccc3c21 (stereo not drawn) | -1.1 | -8.3 | 8.0 | -11.7 | / | / | / | 0.0 | -3.7 | -1.8
O=C(CSc1nncn1-c1ccccc1)Nc1ccc(N2CCOCC2)cc1 | 98.6* | -3.8 | -6.1 | 3.2 | / | / | / | -0.8 | 6.5 | 0.7
CN(C)CCCNC(=O)C1(O)c2cc(Br)ccc2NC(=O)N1c1c(F)cccc1F (stereo not drawn) | -28.7 | -5.0 | -4.4 | -2.1 | 3.0 | 0.8 | -2.5 | 0.1 | -4.8 | 5.9
Cc1ccc(COCCN2CCN(S(=O)(=O)c3ccc(C)cc3)CCC2=O)cc1 | -0.2 | 2.2 | -2.6 | 3.0 | -16.8 | -4.7 | -8.3 | 0.4 | 2.7 | -6.6
COC(=O)CN(C#N)c1nc(NCc2ccccc2)nc(OC)n1 | 4.7 | -1.0 | 5.7 | 8.5 | 0.6 | 1.2 | -0.3 | 0.9 | -5.2 | 11.2
COc1ccc(-c2csc(NC(C)c3nc4cc(Cl)c(Cl)cc4n3CCCO)n2)cc1 (stereo not drawn) | 35.0 | 0.1 | -3.9 | 2.9 | -5.4 | -5.5 | -0.1 | 1.7 | 31.8 | 33.2
COC(=O)Nc1sc2c(c1C(=O)NCc1ccco1)CCC2 | -3.2 | 15.9 | -5.4 | -3.5 | -7.7 | -12.2 | 32.4 | 0.7 | 4.3 | 19.1
CCOC(=O)Cc1csc(NC(=O)c2cc(OC)cc(OC)c2)n1 | -6.0 | -29.2 | 3.8 | -4.3 | / | / | / | -4.8 | 1.1 | 7.4
O=C(CCCCCN1C(=O)c2cccc3cccc(c23)C1=O)NCCCO | -4.3 | -4.9 | -0.9 | 1.9 | -8.0 | -1.0 | 2.0 | -1.1 | -4.9 | -0.9
CC(OC(=O)c1ccc2noc(-c3ccccc3)c2c1)C(N)=O (stereo not drawn) | 2.7 | 12.6 | -14.4 | -5.9 | 3.2 | -2.7 | 1.5 | 2.1 | / | -3.7
COc1ccc(/C=C(\NC(=O)c2ccccc2)C(=O)NCc2cccnc2)cc1 | -2.5 | -8.4 | -4.6 | 2.6 | 3.5 | 2.2 | -0.5 | 0.8 | -5.4 | 0.1
O=C(NC1CCCCC1)C(c1ccc2ncccc2c1)N(Cc1cccs1)C(=O)c1cccs1 (stereo not drawn) | -5.9 | 0.5 | 3.9 | 4.0 | / | / | / | -0.2 | 11.8 | 2.3
CCOC(=O)N1CCN(C(=O)C2CCN(S(=O)(=O)c3ccc(F)cc3)CC2)CC1 | 2.0 | -11.5 | 3.2 | 1.3 | 8.8 | 0.4 | -1.1 | 0.9 | / | 2.3
O=C(CNS(=O)(=O)c1ccccc1)OCC(=O)c1c[nH]c2ccccc12 | -2.3 | / | 6.8 | 0.2 | -6.4 | -14.9 | -0.2 | 0.7 | 0.4 | /
N=c1c(C(=O)NCC2CCCO2)cc2c(=O)n3ccccc3nc2n1Cc1ccco1 (stereo not drawn) | 5.3 | -1.7 | 1.2 | -1.6 | 22.8 | -0.9 | 0.3 | -0.7 | -2.5 | -1.2
CSc1nnc(NC(=O)c2ccc(S(=O)(=O)N(C)C)cc2)s1 | -2.0 | -27.0 | 3.5 | 0.3 | 6.2 | 4.3 | 9.5 | -5.2 | -0.3 | -0.2
O=C(CSc1nc2ccccc2[nH]1)Nc1cccc(S(=O)(=O)N2CCOCC2)c1 | / | -6.6 | 4.1 | -0.6 | -35.6* | -12.0* | -4.5* | 0.3 | -7.2 | -14.6
O=C(NCc1ccncc1)C1CCCN1S(=O)(=O)c1ccc(Cl)cc1 (stereo not drawn) | -2.4 | 2.2 | -6.8 | 0.4 | 8.5 | 6.6 | -1.6 | 0.0 | 0.3 | -13.8
C#CCSc1nnnn1-c1ccc(OCC)cc1 | 1.2 | -31.4 | 6.9 | -4.8 | -17.3 | 8.4 | -2.9 | -0.3 | -3.3 | -25.2
CCC(=O)c1ccc(NC(C)=O)cc1O | -5.6 | 25.1 | 5.5 | 3.8 | 7.1 | 8.4 | 0.2 | 0.4 | -9.0 | /
C[C@]12C(=O)N(c3ccc(C(F)(F)F)cc3)C(=O)N1[C@H]1c3ccccc3OC[C@@H]1[C@H]2c1ccccc1 | -1.9 | / | 2.7 | -1.9 | 1.1 | -11.9 | -7.2 | 1.4 | 1.4 | /
COc1cc(OC)cc(N(C(=O)CNC(=O)c2cccs2)C(C(=O)NCC2CCCO2)c2ccc(OC)c(OC)c2)c1 (stereo not drawn) | 2.2 | -2.9 | -8.0 | -0.5 | 7.1 | 20.8 | 2.0 | 0.4 | -12.5 | -9.2
C/C(=N\Nc1nccnc1Cl)c1ccc(O)cc1 | 93.1* | 3.9 | -12.2 | 1.8 | 3.4 | 0.3 | -1.6 | -4.3 | -2.2 | -6.7
COC(=O)c1ccc(COC(=O)CNC(=O)c2cccs2)cc1 | -3.3 | 0.2 | -1.8 | 0.1 | 1.2 | 4.9 | -0.4 | 2.6 | -7.6 | -16.5
CCOC(=O)c1cnc(SCCc2ccccc2)nc1N | -3.7 | 4.0 | -4.9 | 0.6 | / | / | / | -4.1 | / | -1.3
New compounds follow
SMILES | ALR H2O2 inh | Calb FLC | Beta2AR agonist | LANA-H2A inh | Ecoli rRNA inh | Ecoli rRNA inh OD600 | Ecoli rRNA inh RFP | A1 inh | Beta apoptosis | T cruzi repl
CCCn1c(SC(C(=O)Nc2cccc(OC)c2)c2ccccc2)nc2ccccc2c1=O (stereo not drawn) | 0.4 | 2.9 | -6.1 | -4.6 | / | / | / | 0.4 | 9.3 | 1.4
CCOCCCNC(=O)C(c1ccc(Cl)cc1)N1CCN(c2ccccc2)CC1 (stereo not drawn) | -2.8 | -4.5 | 5.4 | -1.3 | 8.8 | 9.7 | -2.1 | 0.4 | / | 2.0
Cc1ccc(S(=O)(=O)N2CCC(C(=O)C3C(=O)CC(C)(C)CC3=O)CC2)cc1 | 5.0 | -17.3 | -1.5 | 2.4 | -21.1 | -49.0 | -7.3 | 0.3 | -8.1 | -5.0
O=C(Cn1nc(C(F)F)cc1C(F)F)NNC(=S)Nc1ccc([N+](=O)[O-])cc1 | -5.2 | 43.3 | -5.1 | 1.7 | -17.6* | 9.0* | 3.9* | 0.3 | -2.4 | -13.0
COCCCN1C(=O)c2[nH]nc(-c3ccccc3O)c2C1c1ccc(Cl)cc1 (stereo not drawn) | 21.5 | 57.6 | -9.0 | -10.3 | / | / | / | -1.2 | 0.7 | -1.5
COc1cc(NC(=S)N2CCN(C(=O)C3CCCO3)CC2)c(OC)cc1Cl (stereo not drawn) | -39.0 | 11.7 | -0.4 | -10.7 | 10.1 | 5.5 | 2.6 | 0.3 | 0.5 | -5.6
Clc1ccc(CSc2nnc(CNc3cccc(Cl)c3)o2)cc1 | -8.7 | 39.4 | -1.9 | -1.5 | / | / | / | -0.6 | -3.9 | 49.3
CC(C)Cc1nnc(NC(=O)CCC(=O)N2CCN(Cc3ccc(F)cc3)CC2)s1 | -7.9 | -4.6 | -3.7 | 4.3 | 8.8 | 1.1 | -0.8 | 1.4 | 0.8 | -2.2
COc1nc(/C=C/N(C)C)c([N+](=O)[O-])c(OC)n1 | 6.4 | 0.0 | -0.4 | -0.2 | 0.1 | -7.7 | -0.1 | 2.5 | -5.8 | 1.3
COc1ccc2cc(C(=O)NCCc3ccccc3)[nH]c2c1 | 9.3 | 6.4 | -6.3 | -2.7 | 7.4 | 8.9 | -8.4 | 0.4 | -6.6 | -5.0
CC1CN(C(=O)Nc2ccc3c(c2)OCO3)CC(C)O1 (stereo not drawn) | -2.4 | 4.1 | 4.9 | 1.6 | / | / | / | -4.3 | -4.8 | -5.3
CCC(Oc1ccccc1)C(=O)Nc1ccc(S(=O)(=O)N2CCOCC2)cc1 (stereo not drawn) | -1.6 | 11.8 | 7.4 | 1.7 | 1.6 | 1.4 | 1.5 | 0.2 | -2.9 | -4.6
O=C(NCc1cccnc1)c1ccccc1CCc1ccccc1 | -4.4 | 0.8 | -5.3 | 12.0 | -7.7 | -6.6 | -2.4 | -0.3 | -4.1 | -6.6
CCOC(=O)c1c(NC(=O)CSc2cn(CC)c3ccccc23)sc2c1CCC2 | / | 2.6 | 5.3 | -4.4 | 2.0 | 8.7 | -1.3 | 0.4 | -1.7 | 19.3
Cc1csc(NC(=O)CS(=O)(=O)c2ccccc2)n1 | 19.6 | 35.1 | -1.0 | -6.4 | 4.1 | 7.7 | -2.3 | -0.6 | -4.0 | -7.2
O=C(CNCc1ccccn1)Nc1cc(S(=O)(=O)N2CCCCC2)ccc1Cl | / | -15.7 | -9.5 | -2.6 | -1.0 | 1.2 | 5.6 | 1.3 | 5.3 | 7.9
CC1=C(C(=O)Nc2ccccc2C(=O)NCc2ccccc2)SCCO1 | 3.1 | 32.6 | 0.3 | 7.8 | -5.1 | -4.5 | 2.2 | -1.2 | -1.5 | -0.1
CCOC(=O)c1cnc(SC)nc1Sc1ccccc1 | -2.9 | -5.3 | 0.4 | -6.8 | / | / | / | 0.4 | -3.3 | 3.6
CCN(CC)CCNC(=O)c1ccc(NC(=O)C2CC(=O)N(c3ccc4c(c3)OCCO4)C2)cc1 (stereo not drawn) | -3.4 | 10.8 | -1.1 | 61.2* | 3.5 | 11.6 | 2.8 | -0.5 | 2.2 | -1.7
CCOC(=O)C1(CCC(C)C)CC(CSc2nc3ccccc3[nH]2)OC1=O (stereo not drawn) | -5.1 | -13.0 | 1.2 | -0.6 | / | / | / | -0.5 | -4.3 | 5.1
COc1ccc(N2C(=O)c3cccc4cccc(c34)C2=O)cc1 | -6.9 | 8.1 | -3.2 | 8.3 | 2.0 | 7.5 | 3.0 | ? | -1.4 | -13.3
COc1ccc(/C=C/C(=O)Nc2c(C)nn(C)c2C)cc1COc1ccc(Cl)cc1Br | -2.1 | 1.9 | -13.0 | 1.7 | / | / | / | 0.9 | -3.6 | 19.6
Cc1cccc(/N=C/c2c(C)[nH]n(-c3ccccc3)c2=O)n1 | 0.2 | -5.6 | 13.7 | -0.4 | 1.5 | 0.2 | -7.7 | -1.0 | -3.4 | -7.7
O=C(COc1cccc(Cl)c1)NNC(=S)Nc1ccccc1 | / | -13.1 | -7.0 | 0.3 | -10.8 | -6.5 | 5.9 | 0.3 | -2.9 | -4.1
O=C(NC1CC2CCCC(C1)N2Cc1ccccc1)C1CCCCC1 (stereo not drawn) | -1.6 | ? | -4.7 | 0.8 | 1.1 | 9.2 | -1.0 | 1.0 | / | 21.1
S=C(Nc1cccc(Cl)c1)Nc1cccc2cnccc12 | -2.9 | / | 6.6 | 6.2 | / | / | / | -0.9 | -0.4 | /
Cc1ccc(-c2nc(-c3cccnc3)sc2CC(=O)Nc2ccc(C)c(Cl)c2)cc1 | -8.2 | -1.2 | -9.9 | 4.0 | / | / | / | 0.7 | 24.1 | -9.3
